Screens deposited in PubChem by several laboratories.
PrP UTR inh: suppresses PrP 5' UTR mRNA reporter expression; cell-based PrP 5' UTR mRNA reporter, plate reader; inhibition, % (no concentration beside the values); 0.35% of 340,000 active; AID 488862;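 active means every replicate at 50% or more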;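 further: 0 = median of the neutral control wells; tested in H4 reporter cells; numbers are from one replicate; inactives centre near -14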
Sa RN4220 lethal: S. aureus RN4220 growth inhibition; AID 1259311; OD600, 16 h; inhibition, % (concentration not given with the values); 0.33% of 330,000 active;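 active means z-score of -3 or lower and OD600 up to 0.18 on both plates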;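 further: plate controls were untreated cells for no effect and reference antibiotic for full effect; stock transfer was 100 nL into about 80 µL; one replicate is shown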
Mtb hypoxia inh: Mtb hypoxia fluorescent reporter inhibition; M. tuberculosis hypoxia-regulated fluorescent reporter, fluorescence; fluorescence inhibition, % (test concentration not listed); 0.1% of 300,000 active; AID 1159583;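 active means 35 to 45% if threefold the growth effect, above 45% if 1.5-fold the growth effect; inactive means the rest, general growth blockers included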;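 further: wells of about 50 µL received 100 nL stock; 0% = vehicle wells and 100% = reference inhibitor wells; whole bacteria with a GFP reporter of the hypoxia response; strong numbers were not always called active; many hits fall short of the cut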
Sa ugtP lethal: growth inhibition of S. aureus ugtP deletion strain. S. aureus RN4220 ugtP deletion, OD600 growth, 16 h; some inactives read as strong as hits. growth inhibition, % (no concentration beside the values). 0.54% of 330,000 active;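 active means z-score under -3 and OD600 up to 0.15 on both plates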;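 further: plate controls were untreated wells for no effect and antibiotic for full effect; wells of about 80 µL received 100 nL stock; the first replicate is given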
Autofluor counter: flagged as autofluorescent in microsphere protease counterscreen | compound autofluorescence counterscreen, microsphere flow cytometry; hits give high values | fluorescence intensity (test concentration not listed) | 3.1% of 360,000 active;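 active means at least 3 SD above the mean of all compounds, about 16000 in these data; inconclusive means too few beads counted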;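 further: 100 nL of 1 mM stock went into each well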
BJeLR viability: BJeLR cell viability loss. BJeLR (HRASV12) viability, CellTiter-Glo ATP luminescence, 48 h; reference of the scale not given here. inhibition, % (test concentration not listed). 0.17% of 300,000 active;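 active means replicate mean above 50%; inconclusive means above 50% but judged a plate artefact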;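 further: 50 nL library stock added to about 25 µL; numbers are from one replicate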
Mtb hypoxia inh growth: also measured in Mtb hypoxia inh; calls as there; growth inhibition, %; measured here: M. tuberculosis growth (absorbance);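 0% = vehicle and 100% = reference antibiotic; read after six days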
Active calls of the source: *; ? = inconclusive; / = not tested or not shown.

| Molecule | PrP UTR inh | Sa RN4220 lethal | Mtb hypoxia inh | Mtb hypoxia inh growth | Sa ugtP lethal | Autofluor counter | BJeLR viability |
| --- | --- | --- | --- | --- | --- | --- | --- |
| CCc1ccccc1NC(=O)N1CCc2ccccc21 | -29 | 3.9 | 5 | 5 | 5 | 5659 | 3 |
| O=C(NCc1ccccn1)C(=O)NCc1ccccn1 | 10 | -1.9 | -5 | 8 | 9 | 2580 | -5 |
| O=C(CSC1CN(C(c2ccccc2)c2ccccc2)C1)N/N=C/c1ccc(Cl)cc1Cl | -9 | / | / | / | / | 5152 | -5 |
| O=C(O)CCc1ccc(S(=O)(=O)Nc2ccc(OCc3ccccc3)cc2)cc1 | 0 | 0.8 | -12 | 4 | -1 | 5350 | 1 |
| CN(CC1CCCN(CCc2ccc(Cl)cc2)C1)C(=O)c1ccoc1 (stereo not given) | -2 | 0.5 | -2 | 10 | 5 | 5270 | -5 |
| CCN1CCN(C(=O)CNC(=O)c2nn(-c3ccc(OC)cc3)c(=O)c3ccccc23)CC1 | -28 | 3.8 | 15 | 3 | 10 | 4263 | -1 |
| Cc1c(/C=N/NC(=O)CNc2ccccc2)c2ccccn2c1C(=O)c1ccccc1 | -26 | / | / | / | / | 2496 | 14 |
| CC(=NNc1nc2ccccc2s1)c1ccc2c(c1)OCO2 | / | -15 | -2 | -19 | -13 | / | / |
| COc1cc(C=CC(=O)OCC=Cc2ccc3c(c2)OCO3)cc(OC)c1OC | 6 | 2.8 | 8 | -1 | 6 | 2900 | / |
| COc1ccc(-c2noc(CSc3ccccc3)n2)cc1OC | -64 | 11 | 5 | 3 | 5 | 4477 | -2 |
| CN(C)CCCNC(=O)C[C@H]1C[C@H](C(=O)N2CCCCC2)[C@@]2(CCc3ccccc3)c3[nH]c4cc(CCC(=O)N(C)C)ccc4c3CCN2C1=O | -20 | -2.1 | -9 | 4 | 6 | 3989 | / |
| CCC(C)NCC(=O)Nc1ccc(-c2nc3cc(NC(=O)CNC(C)CC)ccc3o2)cc1 (stereo not given) | -22 | 3.7 | / | / | -9 | 4172 | / |
| O=C1CC(SC(=Nc2ccccc2)Nc2ccccc2)C(=O)N1c1cccc2ccccc12 (stereo not given) | -7 | -5.1 | 2 | 3 | 4 | 2940 | 8 |
| CCn1c(/C=C/c2c[nH]c3ccccc23)nc2ccccc2c1=O | -140 | 3.0 | -2 | 6 | 4 | 4597 | 1 |
| N#CCCN(NC1=NS(=O)(=O)c2ccccc21)C(=O)c1ccccc1Br | -4 | -0.2 | -9 | 0 | 3 | 3714 | 2 |
| COc1ccc(C(=O)C2CCCN(Cc3ccc4nonc4c3)C2)c(C)c1 (stereo not given) | -17 | 1.6 | -2 | 6 | 13 | 4944 | 4 |
| Cc1cccn2c(=O)nc(SCC(=O)NC3CCCC3)nc12 | -12 | 0.4 | -1 | 8 | -4 | 5725 | 0 |
| Cc1cc(C)c2c(c1)c(C)cc1nnc(SCC(=O)NCc3ccco3)n12 | -37 | -0.1 | 16 | 8 | 2 | 11699 | -9 |
| CCC(=Nc1ccccc1N)c1c(O)[nH]c(=O)[nH]c1=O | -32 | 4.9 | 15 | 7 | 13 | 4088 | 2 |
| CCOC(=O)CNC(=O)CSc1nnc(-c2ccco2)n1Cc1ccco1 | -14 | 3.4 | 0 | 4 | 2 | 9689 | 17 |
| CCCCSC1=C(C#N)C(c2ccccc2C)C(C(=O)OCC)C(=O)N1 (stereo not given) | -15 | 7.4 | 2 | 6 | -8 | 11005 | 1 |
| Cc1ccc(S(=O)(=O)NCC2(c3ccccc3)CCOCC2)cc1 | -34 | 5.8 | 10 | 12 | 5 | 4037 | -2 |
| CCOC(=O)c1c(NC(=O)CN2C(=O)N(C)C3(CCCCC3)C2=O)sc(C(=O)N(C)C)c1C | -9 | 3.0 | 25* | 60* | -4 | 4062 | / |
| CC1CC(C)CN(Cc2nc3c(c(=O)n(C)c(=O)n3C)n2CCN2CCOCC2)C1 (stereo not given) | -4 | 4.3 | 21 | 14 | -5 | 4205 | -7 |
| COC(=O)CNC(=O)C1Cc2ccccc2CN1S(=O)(=O)c1ccc(F)cc1 (stereo not given) | -36 | 1.3 | 13 | -2 | 1 | 3872 | 9 |
| COc1ccccc1Nc1nn2c(=O)c3ccc(C(=O)N4CCCC(C)C4)cc3nc2s1 (stereo not given) | -2 | 4.8 | -2 | 18 | 5 | 5480 | 12 |
| CCC(CO)Nc1ncnc2c1cnn2-c1ccc(OC)cc1 (stereo not given) | -32 | -0.2 | 10 | 9 | 8 | 5111 | 4 |
| O=C1CC(C(=O)NCCc2ccccc2)SC(=Nc2ccccc2)N1 (stereo not given) | / | 6.1 | 10 | 2 | 13 | 4553 | -1 |
| NC(=O)c1c(NC(=O)c2cccs2)sc2c1CCCCCC2 | -111 | 19 | -3 | 6 | -24 | 8349 | 1 |
| Cc1ccc(C(C(=O)NC2CCCCC2)N2CCOCC2)cc1 (stereo not given) | -18 | -0.8 | / | / | 2 | 4787 | 4 |
| Cc1cc(C(=O)CSc2nnc(-c3ccc4c(c3)OCO4)o2)c(C)n1-c1ccc(F)cc1 | -2 | -2.5 | 0 | 4 | -24 | 2167 | 1 |
| Cc1ccccc1C(=O)NCC(c1ccco1)N1CCc2ccccc21 (stereo not given) | -14 | 0.7 | 3 | 8 | 3 | ? | 8 |
| Cn1c(CNc2cccc(Cl)c2)nnc1SCC#N | -2 | / | / | / | / | 4548 | -4 |
| CC(=O)[C@@]1(O)CCC2C3CC[C@H]4C[C@@H](O)CC[C@]4(C)C3CC[C@@]21C (stereo not given in full) | -7 | 4.8 | -9 | -12 | 22 | 3744 | / |
| COc1ccc(NC(=O)/C(C#N)=C/c2ccc3c(c2)n(C)c(=O)n3C)cc1 | -28 | 6.1 | 11 | -1 | 12 | 1900 | -8 |
| Cc1ccc([C@@H]2CC=C(C(=O)O)[C@H](c3cccc(Cl)c3)N2S(=O)(=O)c2ccccc2C)cc1 | -8 | 21 | 0 | 1 | 17 | 3028 | / |
| COc1ccc(-n2c(O)c(/C(C)=N/Nc3ccccc3)c(=O)[nH]c2=O)cc1 | -3 | 2.0 | -3 | 4 | 4 | 4310 | -7 |
| O=C(N=C1SC2CS(=O)(=O)CC2N1c1ccccc1)C1CC1 (stereo not given) | -2 | 0.5 | -2 | 5 | 7 | 5249 | -4 |
| Cc1ccc(C(=O)N2CCN(S(=O)(=O)c3ccc(Br)cc3)CC2)o1 | -4 | 9.5 | 3 | -1 | 9 | 2860 | 1 |
| CN(CC(=O)Nc1ccc(C(N)=O)cc1)CC(=O)Nc1ccccc1Br | 9 | 2.7 | 14 | 4 | 2 | 3687 | 4 |
| Cc1c(C)c2ccc(OCC(=O)N3CCC(C(=O)O)(c4ccccc4)CC3)c(C)c2oc1=O | -19 | 4.9 | / | / | -3 | 5357 | -10 |
| Cc1cc(-c2nnc(SCC(=O)Nc3cccc(C)c3C)n2N)n[nH]1 | -19 | 2.9 | 1 | -5 | 1 | 5174 | -4 |
| Cc1ccc(-n2c(Cn3nc(C(F)F)cc3C(F)F)n[nH]c2=S)cc1 | -11 | 2.2 | 2 | 2 | -1 | 22572* | -14 |
| CCN1CCN(CC(=O)N/N=C/c2ccc(F)cc2F)CC1 | -13 | / | / | / | / | 2112 | -7 |
| CCS(=O)(=O)N1CCC(NC(=O)C2CCCCC2)CC1 | 4 | -2.0 | 6 | 3 | 1 | 6829 | 4 |
| CC(NC(=O)COC(=O)Cc1ccccc1[N+](=O)[O-])c1ccccc1 (stereo not given) | -12 | 2.0 | 8 | 0 | 0 | 2024 | 8 |
| Cc1ccc(-n2c(C)cc(C=NNC(=O)Cn3c4ccccc4c(=O)c4ccccc43)c2C)cc1 | / | -0.7 | -5 | -1 | -12 | / | / |
| COc1ccc(-n2c(C)cc(=O)[nH]c2=O)cc1 | -17 | 4.7 | 15 | -4 | 5 | 3616 | -4 |
| CC(C)(C)c1cnnn1-c1cccc([N+](=O)[O-])c1 | -25 | 3.0 | 2 | -1 | 6 | 4319 | -6 |
| O=[N+]([O-])c1c(NCCCO)cc(N2CCCCCC2)c2nonc12 | -17 | -2.6 | 7 | 14 | 17 | 3537 | 3 |
| CC(C)c1cccc(C(C)C)c1NC(=O)CCN1C(=O)NC2(CCCC2)C1=O | -7 | 2.1 | 5 | -3 | -4 | 2969 | / |
| COc1ccc2oc(=N)c(C(=O)Nc3ccccc3Cl)cc2c1 | -76 | 6.0 | 4 | -3 | 9 | 3400 | -4 |
| CCCCN1CC[C@H]2C=CC[C@@H](C(=O)N3CCOCC3)[C@H]2C1=O | 15 | / | / | / | / | 3607 | 1 |
| Cc1ccc2[nH]c(=O)c(NC(N)=S)nc2c1 | -36 | 4.3 | 11 | 21 | -9 | 20753* | 4 |
| COc1ccc(C(=O)NC2CCCCC2)cc1OC1CCN(C(C)C)CC1 | -24 | 4.8 | 1 | 5 | 9 | 6457 | 2 |
| O=C(O)CN1C(=O)CC(Cc2ccccc2)C1=O (stereo not given) | -23 | 5.0 | 8 | 6 | 4 | ? | / |
| O=C(Cc1cccs1)Nc1nnc(Cc2ccccc2)s1 | -31 | 0.8 | / | / | -5 | 2974 | -5 |
| COc1cccc(Oc2coc3cc(OC(=O)N(C)C)ccc3c2=O)c1 | -1 | 1.0 | 5 | -9 | 10 | 3088 | 0 |
| COc1ccc(C2=Nn3c(nnc3-c3ccccc3)SC2)cc1OC | -1 | -0.7 | 6 | 9 | -10 | 10676 | 4 |
| CCNc1nc2c(c(=O)n(C)c(=O)n2C)n1CCCc1ccccc1 | -25 | / | / | / | / | 3165 | -2 |

(further entries)
| Molecule | PrP UTR inh | Sa RN4220 lethal | Mtb hypoxia inh | Mtb hypoxia inh growth | Sa ugtP lethal | Autofluor counter | BJeLR viability |
| --- | --- | --- | --- | --- | --- | --- | --- |
| COC(=O)c1ccccc1NC(=O)c1ccc(NS(C)(=O)=O)cc1 | -12 | -8.7 | 18 | 8 | -3 | 2891 | 13 |
| Cc1cc(Cl)ccc1NC(=S)Nc1cccnc1 | -14 | -0.1 | 4 | 0 | 2 | 4308 | -1 |
| CC(C)CC[n+]1ccn(-c2nc3ccccc3nc2[N-]S(=O)(=O)c2ccccc2)c1 | -14 | 18 | 5 | 12 | -12 | 5985 | -1 |
| O=C(CSc1nnc(-c2ccccc2)o1)OCc1ccccc1 | -26 | -11 | 2 | 5 | -7 | 3268 | -3 |
| O=[N+]([O-])c1ccccc1/C=N/n1c(-c2ccccc2)n[nH]c1=S | -33 | / | / | / | / | 3931 | -6 |
| COc1cccc(NC(=O)CN(C)C(=O)c2cccc(S(=O)(=O)Nc3ccccc3OC)c2)c1 | -14 | 5.0 | 15 | 7 | 7 | 3005 | / |
| COc1cc(OC)c(C(=O)OCC(=O)Nc2cccc(S(=O)(=O)NC3=NCCCCC3)c2)cc1OC | -16 | 4.5 | -3 | -6 | 7 | ? | / |
| O=C(O)C1C2CCC(O2)C1C(=O)Nc1ccc(F)c(F)c1 (stereo not given) | -19 | -0.2 | 7 | 9 | 3 | 4398 | -6 |
| CCCCN1CC2=C(C1=O)C(c1ccc(O)cc1)NC(=O)N2C (stereo not given) | -7 | 1.8 | 4 | -5 | 0 | 4466 | -3 |
| CCNC(=S)NN=Cc1c(Cl)cccc1Cl | / | 0.9 | 3 | 17 | 5 | / | / |
| Cc1c(F)cccc1NS(=O)(=O)c1ccc2c(c1)c(C)cc(=O)n2C | -7 | 16 | 13 | 4 | 2 | 3438 | 1 |
| CCOC(=O)CSCC(=O)N1CCC(Cc2ccccc2)CC1 | -15 | -1.0 | 7 | 0 | 1 | 4565 | -3 |
| CN(C)C(CNC(=O)c1cc(S(=O)(=O)N(C)c2ccc(F)cc2)ccc1Cl)c1cccs1 (stereo not given) | -16 | 5.6 | 4 | -2 | 3 | 2955 | / |
| Cc1c(C=O)c2ccccn2c1C(=O)c1cccs1 | -6 | 5.1 | 4 | 0 | 2 | 3375 | 12 |

Molecules above that contain two or more sulfur atoms, in the order listed:
| Molecule | PrP UTR inh | Sa RN4220 lethal | Mtb hypoxia inh | Mtb hypoxia inh growth | Sa ugtP lethal | Autofluor counter | BJeLR viability |
| --- | --- | --- | --- | --- | --- | --- | --- |
| NC(=O)c1c(NC(=O)c2cccs2)sc2c1CCCCCC2 | -111 | 19 | -3 | 6 | -24 | 8349 | 1 |
| O=C(N=C1SC2CS(=O)(=O)CC2N1c1ccccc1)C1CC1 (stereo not given) | -2 | 0.5 | -2 | 5 | 7 | 5249 | -4 |
| O=C(Cc1cccs1)Nc1nnc(Cc2ccccc2)s1 | -31 | 0.8 | / | / | -5 | 2974 | -5 |
| CN(C)C(CNC(=O)c1cc(S(=O)(=O)N(C)c2ccc(F)cc2)ccc1Cl)c1cccs1 (stereo not given) | -16 | 5.6 | 4 | -2 | 3 | 2955 | / |
